Rango complex inh – inhibitors of Rango-importin beta complex formation; Rango CFP/YFP FRET sensor + importin beta, 45 min; Potency, µM (highest dose often 92.2 µM), inactives show at the highest dose inhibition of complex formation; actives 0.031% (n = 340,000); AID 540263; active = rising FRET ratio curve, often small or poorly fitted; inconclusive = mostly compound fluorescence or quenching in the first reads; inactive = flat curves in all reads;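 further: potency means the concentration at half of the fitted maximal effect; 0% = DMSO wells and 100% = buffer wells lacking importin beta; nearly all actives have a fitted effect of over 15% in size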
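FRET biosensor Rango (snurportin 1 IBB between N-terminal EYFP and C-terminal Cerulean), 50 nM in PBS/1 mM DTT/0.02% Tween-20/0.1% BSA, preincubated 5 min RT with compound; 0.125 microM importin beta added, 45 min RT, CFP/YFP FRET ratio read.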
Rango release inh – inhibition of RanGTP-driven Rango-importin beta dissociation; Biochemical FRET Rango-importin beta, RanGTP-induced dissociation; Potency, µM (top dose mostly 46.1 µM), without a hit: at the top dose activity change, negative = inhibition; actives 0.071% (n = 340,000); AID 540253; active means falling FRET ratio curve, often poorly fitted, with flat reads before Ran was added; inconclusive means other falling curves, or compound fluorescence or quenching; inactive means flat or rising ratio curve;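 further: potency means the concentration at half of the fitted maximal effect; % of control where 0% means no effect; nearly all actives have a fitted effect of over 45% in size; -100% = wells without RanGTP and RCC1; the record marks most hits as doubtful in a second field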
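Rango/importin beta premix (0.1/0.25 uM final), PBS + 1 mM DTT + 0.02% Tween-20 + 0.1% BSA; cpd 5 min RT; FRET pre-read; + RanGTP-RCC1 (0.6 uM Ran, 2 mM GTP, 0.2 uM RCC1); 45 min RT; FRET post-read, ex 430, em 486/530 nm.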
GLA inh pH 4.5 – inhibitors of human alpha-galactosidase A at pH 4.5. purified enzyme, 4-MU-alpha-Gal fluorescence, pH 4.5. activity change, negative = inhibition, % at 105 µM. P06280. 230,000 tested, under 10 active. AID 1467; inconclusive = small, poorly fitted or top-dose-only inhibition, or a rising curve; inactive = flat fitted curve, though single readings scatter; no compound was filed as active;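 further: 0% = full activity with enzyme and -100% = basal without enzyme; dose as in the result columns while the protocol names 77 µM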
Target sequence (P06280 whole entry, looked up): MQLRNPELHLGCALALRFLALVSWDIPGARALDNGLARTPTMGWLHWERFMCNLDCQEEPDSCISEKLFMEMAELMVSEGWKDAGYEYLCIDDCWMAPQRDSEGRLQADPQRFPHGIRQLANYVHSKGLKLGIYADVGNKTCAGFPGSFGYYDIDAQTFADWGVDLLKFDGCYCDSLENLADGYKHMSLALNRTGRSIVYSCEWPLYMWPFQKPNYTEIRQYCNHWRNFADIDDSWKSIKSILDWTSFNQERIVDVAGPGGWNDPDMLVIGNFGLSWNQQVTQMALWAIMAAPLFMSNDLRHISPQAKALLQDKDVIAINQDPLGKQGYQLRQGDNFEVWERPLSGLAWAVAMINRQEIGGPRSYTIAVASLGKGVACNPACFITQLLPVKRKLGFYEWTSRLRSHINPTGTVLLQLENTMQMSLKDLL
miR-21 reporter – miR-21 reporter, rising signal. HeLa miR-21 FLuc reporter, luciferase, 48 h. Potency, µM (titrated, usually from 38.3 µM), without a hit: at the highest dose reporter change, positive = more light. 340,000 tested, under 10 active; active = well fitted rising curve with a large enough effect; inconclusive = small, poorly fitted or top-dose-only effect; inactive = no such curve, though single readings can be large or run the other way;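 further: % of control where 0% means no effect; miR-21 action dims this reporter so a rising signal means less miR-21 action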
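Compounds were titrated across several concentrations (up to approximately 40 uM) and incubated 48 hours with HeLa miR-21-FLuc reporter cells (miR-21 target sequence downstream of FLuc, endogenous miR-21). Readout was firefly luciferase luminescence after lytic detection reagent.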
* hit, by the source's call; ? = inconclusive; . = no result given; & = joins results of further samples; [ ] = dose if it differs, or a comment. Not all compounds are listed, so the mix of outcomes need not match the whole.

Molecule | Rango complex inh | Rango release inh | GLA inh pH 4.5 | miR-21 reporter
COc1ccc(NC(=O)CSc2nncc3ccccc23)cc1 | -1.9% | 7% | -6 | -8%
CC(C)COc1ccc(C(=O)NC(CC(C)C)C(=O)O)cc1 (stereo not given) | -0.3% | 6% | 5 | -1%
Cc1nc2nc3c(cn2n1)C(=O)CC(C)(C)C3 | 1.1% | 3% | 9 | -2%
CC(C)C(NS(=O)(=O)c1cccc2nsnc12)C(=O)Nc1nccs1 (stereo not given) | ? | -6% | 1 | -1%
COc1ccc(-c2nnc(N)s2)cc1 | 8.3% | -4% | -3 | -32%
Cc1ccc(C(=O)CN(CCCC(N)=O)C(=O)c2ccncc2)cc1 | -7.9% | -14% | . | .
CCCN(Cc1nnc(-c2cccs2)o1)C(=O)CN1C(=O)NC2(CCCCC2C)C1=O (stereo not given) | -1.1% | 7% | . | .
COc1ccc(C2=Nc3ccc(C)cc3C(c3ccccc3)N2CC(=O)NN)cc1 (stereo not given) | -2.1% | -5% | 2 | -4%
Cn1nnnc1SCC(=O)N1CCN(c2cccc(Cl)c2)CC1 | -1.7% | 1% | -5 | -2%
C=C(C)Cn1c(CCNC(=O)CCC)nc2ccccc21 | 2.2% | 15% | 1 | -2%
COc1ccc(/C=N/N=C2\SC(CC(=O)O)C(=O)N2c2ccccc2)cc1 (stereo not given) | -1.2% | 3% | -5 | -4%
CN(C)CCCN(C(=O)c1ccc(Br)s1)c1nc2cc3c(cc2s1)OCCO3 | ? | 0% | . | .
Cc1ccc2c(c1)CCCN2C(=O)c1ccc2c(c1)OCO2 | -2.4% | 2% | -7 | -10%
COc1ccccc1OCc1ccc(C(=O)NN)o1 | -2.2% | -11% | -6 | -19%
CC(C)(C)OC(=O)C(Cc1ccc(OC(C)(C)C)cc1)NC(=O)CNC(=O)CNC(=O)OCc1ccccc1 (stereo not given) | 0.3% | 8% | 0 | 0%

Fetched by structure from the list above (3):
Molecule | Rango complex inh | Rango release inh | GLA inh pH 4.5 | miR-21 reporter
CN(C)CCCN(C(=O)c1ccc(Br)s1)c1nc2cc3c(cc2s1)OCCO3 | ? | 0% | . | .
CC(C)COc1ccc(C(=O)NC(CC(C)C)C(=O)O)cc1 (stereo not given) | -0.3% | 6% | 5 | -1%
CCCN(Cc1nnc(-c2cccs2)o1)C(=O)CN1C(=O)NC2(CCCCC2C)C1=O (stereo not given) | -1.1% | 7% | . | .

(cont.)
Molecule | Rango complex inh | Rango release inh | GLA inh pH 4.5 | miR-21 reporter
Cc1ccc(-c2[nH]nc3c2C(C)C(C#N)=C(N)O3)cc1 (stereo not given) | 0.7% | 0% | -19 | -2%
Cc1sc2nc(C(C)Sc3nnc(C)n3-c3ccccc3)[nH]c(=O)c2c1C (stereo not given) | . | . | 3 | -3%
C#CCSc1nnc(-c2cccc3ccccc23)o1 | 0.3% | 0% | . | .
Cc1cc(C)c(OCC(=O)OCC(=O)N(C)C2CCS(=O)(=O)C2)c(C)c1 (stereo not given) | -3.6% | 5% | . | .
CCOC(=O)Nc1ccc(OCc2nnc3c4ccccc4c(C)nn23)cc1 | 2.6% | -2% | -2 | -32%
COc1ccc(NC(=O)c2cc(S(=O)(=O)N3CCCC3)c[nH]2)cc1 | -1.9% | 1% | . | 0%
COc1ccc(Br)cc1C(=O)Nc1cccc(-c2nnc(-c3ccco3)o2)c1 | -0.9% | -2% | . | .
COc1ccc2c(c1)c(C(=O)N/N=C/c1cn(C)c3ccccc13)c(C)n2C | 2.7% | 19% | -1 | 3%
COc1cc2c(cc1OC)CN(C(=O)c1ccc(OC)c(S(=O)(=O)N3CCOCC3)c1)CC2 | 4.1% | 10% | -26 | -34%
O=C(COC(=O)C1=NNC(=O)CC1)NCCc1ccccc1 | 4.1% | -1% | . | .
COc1ccc(NS(=O)(=O)c2cccc3cccnc23)cc1 | 1.0% | 1% | -8 | -6%
CCOC(=O)C1(CCc2ccccc2)CCN(Cc2ccc(O)cc2)CC1 | -4.1% | 3% | 0 | 17%
Cc1cccc2cc(C#N)c(SCC(=O)N3CC(=O)Nc4ccccc43)nc12 | ? | -6% | -13 | 21%
CN1C(=O)NC(c2ccccc2)(C(F)(F)F)S/C1=C(/C#N)c1nnc(N2CCOCC2)n1-c1ccccc1 (stereo not given) | 0.0% | 1% | 7 | -4%
COC(=O)c1ccc(CNC(=O)COC(=O)/C=C/c2ccc(OC)c(OC)c2)cc1 | 0.4% | 21% | . | .

Molecule | Rango complex inh | Rango release inh | GLA inh pH 4.5 | miR-21 reporter
c1ccc(CCc2nc(-c3ccncc3)no2)cc1 | 3.3% | -27% | 4 | -28%
CCn1c(=O)c2c(O)cc(=O)oc2c2ccccc21 | -1.1% | -6% | -6 | 0%
CCCC(=O)NC(=S)Nc1cccc(Cl)c1N1CCCC1 | -1.1% | -9% | -8 | -2%
CC12CC(NC(=O)N1c1ccc(C(=O)N3CCN(c4ccc(F)cc4)CC3)cc1)c1ccccc1O2 (stereo not given) | -6.8% | -5% | -1 | 14%
CC(NC(=O)Nc1nnc(C(F)(F)F)s1)N1C(=O)C2C3C=CC(C3)C2C1=O (stereo not given) | 0.2% | 3% | -3 | -2%
CN1CCN(C(=O)/C=C/c2ccc3c(c2)OCO3)CC1 | 0.1% | 5% | 3 | -18%
Cn1nnnc1Sc1ccc([N+](=O)[O-])cc1Cl | -1.8% | 1% | 6 | 11%
CC1(C(=O)O)CCC(C(=O)N2CCCCC2)C1(C)C (stereo not given) | 0.2% | 17% | 5 | 0%
Clc1ccc(Nc2ncnc3c2nnn3Cc2ccccc2)cc1 | 2.9% | 3% | 2 | 1%
CCCCn1c(SCC(=O)OCC)nc2c(sc(=S)n2-c2ccccc2OC)c1=O | -1.2% | -10% | . | -1%
C[C@H]1CN=C(Nc2ccccc2)N1CCCC1CCCC1 | -0.3% | 1% | . | 11%
COc1ccc2c(c1)C(=O)N(c1ccc(C)cc1C)C(=O)C2(C)C | 0.9% | 21% | . | -7%
COc1ccc(-c2noc(CN3CCN(c4ccccc4)CC3)n2)cc1 | -0.1% | 12% | -1 | -7%
COc1cc(/C=C/C(=O)OCC(=O)Nc2cccc(Oc3ccccc3)c2)ccc1O | ? | ? | 9 | -10%
CC1CCCCN1C(=O)CCn1c(=S)oc2ccccc21 (stereo not given) | -1.8% | -12% | -2 | -14%

Second line of a record – Rango complex inh, Rango release inh, GLA inh pH 4.5, miR-21 reporter
> COCCNC(=S)NNc1cccc(C(=O)O)c1
    -0.8%, -2%, 4, -23%
> O=C(Cc1ccccc1)Nc1cccc(C(=O)N/N=C/c2ccco2)c1
    -0.1%, 0%, 3, -16%
> CCc1ccccc1-n1nnc(-c2ccccc2)n1
    1.4%, 0%, ., -2%
> CCc1ccc(NC(=O)CSc2nc(=O)n(CCN(C)C)c3c2CCCC3)cc1
    -0.7%, 4%, ., .
> CCOC(=O)Cn1c(=O)oc2cc(S(=O)(=O)N3CCCC(C)C3)ccc21 (stereo not given)
    0.2%, 22%, ., 0%&-15%
> COc1ccccc1NC(=O)C(=O)NCC1CCCN1S(=O)(=O)c1cccs1 (stereo not given)
    -1.5%, -15%, ., .
> CC[C@@H](C)C(NC(=O)OC(C)(C)C)c1cn([C@@H](CCCCNC(=O)OC(C)(C)C)C(=O)N2CCN(C(=O)OC(C)(C)C)CC2)nn1 (stereo not given in full)
    0.6%, -7%, -10, 4%
> COc1ccc(CNC(=O)C2CCN(S(=O)(=O)N3CCC4(CC3)OCCO4)CC2)c(OC)c1
    3.8%, 4%, 0, -1%
> CN(Cc1ccccc1F)C(=O)c1sccc1-c1ccccc1
    1.5%, 11%, ., -2%
> CC1(C)Cc2c(cnn2-c2ccccc2)C(NC(=O)c2ccc[n+]([O-])c2)C1 (stereo not given)
    -3.3%, -1%, ., -3%
> CC1(C)CC(NS(=O)(=O)c2ccc(F)cc2)CC(C)(C)N1
    -0.1%, 1%, ., -5%
> O=C(c1ccccc1)N1CCN(Cc2ccccc2Br)CC1
    -0.9%, 20%, 3, -12%
> CCC(C)Sc1nnc(NC(=O)c2ccco2)s1 (stereo not given)
    -2.9%, 1%, ., .
> Cc1[nH]n(-c2ccccc2)c(=O)c1-c1ccccc1
    0.1%, -5%, 3, -10%
> Cc1ccc(N(CCC(=O)NC(C)(C)C)S(=O)(=O)c2ccc(C)cc2)cc1
    -2.5%, -5%, 1, 3%

Second line of a record – Rango complex inh, Rango release inh, GLA inh pH 4.5, miR-21 reporter
> CCOC(=O)c1c(NC(=O)CCl)sc(C(=O)N(CC)CC)c1C
    -0.4%, 6%, 2, ?
> CCCCN1C(N)=NC[C@@H]1CC1CCCCC1
    -0.1%, -15%, ., .
> CC(Oc1ccc(Cl)cc1)C(=O)Nc1ncccn1 (stereo not given)
    4.8%, -14%, -7, -9%
> NC(=O)C1(N2CCCCC2)CCN(S(=O)(=O)c2ccc(Cl)s2)CC1
    2.9%, ?, ., 0%
> CC(=O)Nc1ccc(S(=O)(=O)N2CCC(NC(C)=O)(c3cccc(F)c3)CC2)cc1
    -1.6%, -4%, 8, 6%
> Cc1cccc(OCc2ccc(C(=O)Nc3ccc(F)cc3)cc2)c1
    5.6%, -9%, 3, -5%
> Oc1ccc(-c2n[nH]c(=S)n2-c2ccc3c(c2)OCCO3)c(O)c1
    2.2%, -5%, -7, 25%
> COc1cc(Cl)c(C)cc1NC(=O)Cn1c(NCCO)nc2ccccc21
    0.2%, 27%, -6, -3%
> COc1ccc(NC(=O)c2ccc3c(=O)n(-c4ccc(OC)cc4OC)c(=S)[nH]c3c2)c(OC)c1
    -5.7%, 15%, -2, 11%
> N#CC1=C(N)OC2=C(C(=O)CCC2)C1c1cc2c(cc1Cl)OCO2 (stereo not given)
    -0.7%, -18%, ., 0%
> CCOc1ccc(OCCC(=O)N(CC)CC(=O)NCc2ccc(Cl)cc2)cc1
    -0.8%, 18%, ., .
> CN(C(=O)COc1ncnc2sccc12)c1ccccc1
    -3.1%, 1%, -5[21.1 µM], 0%
> Cc1cc(C(=O)N/N=C/c2ccc([N+](=O)[O-])o2)c(C)o1
    -2.1%, 0%, -10, ?
> N#Cc1ccc(S(=O)(=O)NC[C@H]2O[C@@H](n3cnc4c(N)ncnc43)[C@H](O)[C@@H]2O)cc1
    -0.2%, ?, ., .
> FC(F)(F)c1nnc2ccc(N3CCOCC3)nn12
    ?, -5%, 0, -3%

Ordered by number of heavy atoms (falling): some entries from above
Second line of a record – Rango complex inh, Rango release inh, GLA inh pH 4.5, miR-21 reporter
> Cc1cccc2cc(C#N)c(SCC(=O)N3CC(=O)Nc4ccccc43)nc12
    ?, -6%, -13, 21%
> C=C(C)Cn1c(CCNC(=O)CCC)nc2ccccc21
    2.2%, 15%, 1, -2%
> CC1(C(=O)O)CCC(C(=O)N2CCCCC2)C1(C)C (stereo not given)
    0.2%, 17%, 5, 0%

Later entries
Second line of a record – Rango complex inh, Rango release inh, GLA inh pH 4.5, miR-21 reporter
> CSc1ccc(Cl)c(C(=O)NCCOc2ccccc2)c1
    -3.8%, 2%, 6, -48%
> CC(C)CN1C=C2C(=O)C(C)(OC(=O)CCc3ccccc3)C(=O)C=C2C=C1c1ccc(C#N)cc1 (stereo not given)
    ?, ?, 4&-10, 4%
> Cc1cc(O)c(/C=N/Nc2ccccc2)c(=O)o1
    -4.8%, -20%, -3, -2%
> Cc1ccccc1C(=O)N(CC(=O)Nc1sc(C)c(C)c1C(N)=O)C1CCCC1
    -1.7%, 2%, ., 27%
> CCOC(=O)c1ccc(NC(=O)COC(=O)Cc2csc(-c3ccccc3)n2)cc1
    -0.6%, 14%, -1, -16%
> O=C(COC(=O)CNC(=O)c1ccc(Cl)cc1Cl)NC1CC1
    2.7%, -2%, ., .
> COc1ccc(CCNC(=O)CN2C(=O)CSc3ccc(S(=O)(=O)N4CCOCC4)cc32)cc1OC
    4.9%, 19%, ., 0%
> O=C1OC(Oc2ccc(Br)cc2)(c2ccccc2)c2ccccc21 (stereo not given)
    4.4%, -4%, ., .
> CC1Cc2cc(S(=O)(=O)N3CCN(C)CC3)ccc2N1C(=O)C1CC1 (stereo not given)
    3.1%, -4%, ., -11%

Source: PubChem BioAssay (National Center for Advancing Translational Sciences (NCATS))
